Assay outcomes: PubChem, National Center for Advancing Translational Sciences (NCATS)
HTT promoter inh – inhibitors of huntingtin promoter activity; HEK293 HTT promoter firefly luciferase reporter (activity 0% = vehicle and -100% = no light), 24 h; Potency, µM (top dose mostly 57.5 µM), for inactives: top-dose activity change, negative = inhibition, usual class: inhibitors; 48,000 tested, 0.93% active; AID 1508623; active = well fitted inhibition curve with a large enough effect; inconclusive = small, poorly fitted or top-dose-only effect; inactive = no such curve, though single readings can be large or run the other way; note: nearly all actives have a fitted effect of over 50% in size
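HEK293 Fluc reporter, 2,500 cells/well, 24 h pre-culture; cpds up to 57.5 uM final, 24 h 37 degrees C; Dual-Glo, 10 min RT; normalized vehicle = 0%, zero RLU = -100%.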
PMP22 txn prim – modulators of PMP22 gene transcription in S16 Schwann cells; S16 Pmp22-F2sN Schwann cells (luciferase reporters placed in the Pmp22 gene), FLuc/NLuc coincidence luminescence, 24 h; Potency, µM (series often up to 57.5 µM), for the others: at the top dose activity change, negative = inhibition, hits mostly inhibitors; 43,000 tested, 2% active; active = clear falling dose curves in both reporters; inconclusive = both reporters move, but less clearly or upward; inactive = either reporter flat; the % is the NLuc reporter signal; note: % is set by controls: 0 for no effect and ±100 for the full control effect; some results filed as inactive show a strong effect at the top dose
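Luminescent read-out of sequential FLuc and NLuc signals from a reporter embedded in the Pmp22 3' UTR of S16 Schwann cells, taken after 24 h compound exposure at 37C; compounds reducing both signals score as inhibitors of expression.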
* = called active by the depositor; [ ] = another dose, or the depositor's remark. Potency is the fitted concentration of half-maximal effect. The order is random (roughly 2.7% active in at least one column).

Results for COc1ccccc1Cn1c(CNS(=O)(=O)c2cccc([N+](=O)[O-])c2)nc2cccnc21 ?
HTT promoter inh: -17.7%; PMP22 txn prim: -0.7%

Results for O=c1cc(-c2ccccc2)n2c(SCc3ccccc3)nnc2[nH]1 ?
HTT promoter inh: -6.5%; PMP22 txn prim: -3.8%

What do the screens show for `CCN(CC)c1cc(C)c2cc(NC(=O)c3ccc(OC)c(OC)c3)ccc2n1`?
HTT promoter inh: -6.7%; PMP22 txn prim: inconclusive

Results for COc1cccc(-n2c(SCC(=O)Nc3c(C)cc(C)cc3C)nc3c([nH]c4ccccc43)c2=O)c1 ?
HTT promoter inh: inconclusive; PMP22 txn prim: 11.9µM*

How did Cc1oc(-c2cccc(Cl)c2)nc1CS(=O)(=O)CC(=O)NC(C)CCc1ccccc1 (stereo unspecified) do in these assays?
HTT promoter inh: -13.1%; PMP22 txn prim: -2.7%

Results for COc1cc(OC)c(NC(=O)c2c(C)oc3ncnc(N4CCCCC4)c23)cc1Cl ?
HTT promoter inh: 11.3%; PMP22 txn prim: inconclusive

Results for CCNC(=O)N1CCN(CCCC(c2ccc(F)cc2)c2ccc(F)cc2)CC1 ?
HTT promoter inh: -16.9%

How did Cc1ccc(-c2nc3c(c(SCC(=O)N4CCCCC4)n2)Cc2cc(C)ccc2O3)cc1 do in these assays?
HTT promoter inh: -18.4%; PMP22 txn prim: -17.0%

What do the screens show for `CN(Cc1ccc(F)cc1)S(=O)(=O)c1nnc(NC(=O)c2ccccc2Br)s1`?
HTT promoter inh: -32.3%; PMP22 txn prim: -52.1%

How did CCC(C)NC(=O)Cn1c(=O)c2cccn2c2ccc(F)cc21 (stereo unspecified) do in these assays?
HTT promoter inh: 0.9%; PMP22 txn prim: 14.6%

What do the screens show for `CCc1ccc(Nc2nnc(-n3nc(C)cc3C)c3ccccc23)cc1`?
HTT promoter inh: 16.6%; PMP22 txn prim: 2.1%

How did CC(=O)c1cccc(NC(=O)Cn2ccn3nc(-c4ccccc4)cc3c2=O)c1 do in these assays?
HTT promoter inh: -15.7%; PMP22 txn prim: 0.2%

Results for CCCC(CCC)C(=O)Nc1nnc2n1CCS2 ?
HTT promoter inh: -15.6%; PMP22 txn prim: -1.1%

What do the screens show for `CCc1cccc(C)c1NC(=O)CSc1nc2ccccc2nc1N1CCOCC1`?
HTT promoter inh: -28.4%; PMP22 txn prim: -4.5%

Results for COc1ccc(N2CCN(C(=O)C3CCN(S(=O)(=O)c4cn(C)cn4)CC3)CC2)cc1 ?
HTT promoter inh: -6.5%; PMP22 txn prim: -6.0%

Reprinted from above, two compounds:
What do the screens show for `CCc1ccc(Nc2nnc(-n3nc(C)cc3C)c3ccccc23)cc1`?
HTT promoter inh: 16.6%; PMP22 txn prim: 2.1%

How did CC(=O)c1cccc(NC(=O)Cn2ccn3nc(-c4ccccc4)cc3c2=O)c1 do in these assays?
HTT promoter inh: -15.7%; PMP22 txn prim: 0.2%

The listing picks up with the three entries that preceded the break.
Results for CCCC(CCC)C(=O)Nc1nnc2n1CCS2 ?
HTT promoter inh: -15.6%; PMP22 txn prim: -1.1%

What do the screens show for `CCc1cccc(C)c1NC(=O)CSc1nc2ccccc2nc1N1CCOCC1`?
HTT promoter inh: -28.4%; PMP22 txn prim: -4.5%

Results for COc1ccc(N2CCN(C(=O)C3CCN(S(=O)(=O)c4cn(C)cn4)CC3)CC2)cc1 ?
HTT promoter inh: -6.5%; PMP22 txn prim: -6.0%

Results for O=C(Cn1nc(C(F)(F)F)c2c1CCC2)Nc1ccc(Cl)cc1 ?
HTT promoter inh: inconclusive; PMP22 txn prim: inconclusive

What do the screens show for `C=Cc1ccc(Cn2c(C(=O)O)c(CNC3CCCCC3)c3ccc(OC)cc32)cc1`?
HTT promoter inh: -10.4%; PMP22 txn prim: inconclusive

How did Cc1cccc(-c2noc(CCCC(=O)NCc3ccco3)n2)c1 do in these assays?
HTT promoter inh: -26.6%; PMP22 txn prim: -7.0%

What do the screens show for `CNC(=O)CCCN1C(=O)c2cccnc2Sc2ccccc21`?
HTT promoter inh: -8.0%; PMP22 txn prim: inconclusive

Results for COc1ccc(Cn2c(NCC(C)C)nc3c2c(=O)n(C)c(=O)n3C)cc1 ?
HTT promoter inh: -12.4%; PMP22 txn prim: -21.9%

What do the screens show for `Cc1c(Cl)cccc1NC(=O)CNS(=O)(=O)c1cccs1`?
HTT promoter inh: 5.1%; PMP22 txn prim: -20.7%

How did Cc1cccc(N2CC(c3nc4ccccc4n3CCC3CCCCC3)CC2=O)c1 (stereo unspecified) do in these assays?
HTT promoter inh: inconclusive; PMP22 txn prim: inconclusive

Results for Cc1ccc(-n2cnc3cc(C(=O)NCc4ccccc4Cl)ccc32)c(C)c1 ?
HTT promoter inh: inconclusive; PMP22 txn prim: inconclusive

What do the screens show for `O=C(C1CCCN(S(=O)(=O)c2cccc3nonc23)C1)N1CCN(c2cccc(C(F)(F)F)c2)CC1` (stereo unspecified)?
HTT promoter inh: inconclusive; PMP22 txn prim: inconclusive

How did CCOc1ccc(-n2c(SCC(=O)NCc3ccccc3)nc3n[nH]c(C)c3c2=N)cc1 do in these assays?
HTT promoter inh: -18.4%; PMP22 txn prim: -20.1%

Results for O=C(Cc1ccccc1)Nc1c(C(=O)c2ccccc2)oc2ccccc12 ?
HTT promoter inh: 6.3%; PMP22 txn prim: -87.9%

Results for COc1ccccc1NC(=O)Cn1c(=O)n(Cc2ccco2)c(=O)c2cccnc21 ?
HTT promoter inh: -15.8%; PMP22 txn prim: -7.0%

What do the screens show for `COCCCNC(=O)C1CCCN(c2ncnc3onc(C)c23)C1` (stereo unspecified)?
HTT promoter inh: inconclusive; PMP22 txn prim: -14.3%

How did Nc1nc(=S)c2[nH]cnc2[nH]1 do in these assays?
HTT promoter inh: inconclusive

How did Oc1cccc(-c2c3nc(c(-c4cccc(O)c4)c4ccc([nH]4)c(-c4cccc(O)c4)c4nc(c(-c5cccc(O)c5)c5ccc2[nH]5)CC4)C=C3)c1 do in these assays?
HTT promoter inh: inconclusive

Results for O=C(NCC(c1cccs1)S(=O)(=O)c1cccs1)c1ccccc1F (stereo unspecified) ?
HTT promoter inh: 2.1%; PMP22 txn prim: -7.2%

Results for Cc1ccc(-n2c(=O)cc(N3CCN(c4ccccc4Cl)CC3)[nH]c2=O)cc1 ?
HTT promoter inh: inconclusive; PMP22 txn prim: 16.4%

How did CC1CCN(CCCNC(=O)c2cc(Sc3ccc(F)cc3)nc3ccccc23)CC1 do in these assays?
HTT promoter inh: -19.8%; PMP22 txn prim: inconclusive

Results for CCCCN(CCCNC(=O)c1cc(Nc2cccc(SC)c2)nc2ccccc12)Cc1ccccc1 ?
HTT promoter inh: inconclusive; PMP22 txn prim: inconclusive

What do the screens show for `Fc1ccc(NCc2ccccc2-c2nnc(-c3ccccc3Cl)o2)cc1`?
HTT promoter inh: 45.3%[activator]; PMP22 txn prim: -7.5%

Results for CCOc1ccccc1N(CC)C(=O)c1ccc2c(=O)n3c(nc2c1)CCCCC3 ?
HTT promoter inh: inconclusive; PMP22 txn prim: -12.4%

What do the screens show for `CCC(Oc1ccc(F)cc1)C(=O)Nc1nc(-c2ccc(F)cc2)ns1` (stereo unspecified)?
HTT promoter inh: inconclusive; PMP22 txn prim: inconclusive

What do the screens show for `CCOc1ccc(NC(=O)Cn2cnc3nc4c(cc3c2=O)CCCC4)cc1`?
HTT promoter inh: -8.1%; PMP22 txn prim: 13.9%

Results for COCCCNC(=O)CCCn1c(=O)c2cccn2c2cccnc21 ?
HTT promoter inh: -7.8%; PMP22 txn prim: -18.9%

How did COc1ccc(-n2c(=O)c3c(c4cc(OC)ccc4n3C)n(Cc3ccc(F)cc3Cl)c2=O)cc1 do in these assays?
HTT promoter inh: -24.7%; PMP22 txn prim: -0.3%

How did O=C(CCC1CCCC1)N1CCc2c([nH]c3ccccc23)C1c1ccc(Cl)cc1 (stereo unspecified) do in these assays?
HTT promoter inh: inconclusive; PMP22 txn prim: -26.5%

Results for CCOC(=O)c1ccc(NC(=O)CN(c2ccc(C)cc2)S(=O)(=O)c2c(C)noc2C)cc1 ?
HTT promoter inh: inconclusive; PMP22 txn prim: inconclusive

How did Cc1c(CCNC(=O)c2ccc(C(F)(F)F)cc2)sc2nc(-c3ccc(F)cc3)nn12 do in these assays?
HTT promoter inh: 4.2%; PMP22 txn prim: -22.4%

How did CCOC(=O)c1nc(Nc2ccc(OC)cc2)c2ccccc2n1 do in these assays?
HTT promoter inh: -18.5%; PMP22 txn prim: inconclusive

Results for O=S(=O)(c1ccc(Cl)cc1)c1nc(-c2ccccc2Br)oc1N1CCOCC1 ?
HTT promoter inh: inconclusive; PMP22 txn prim: inconclusive

How did Cc1ccc(O)c(NC(=O)c2cc(-c3ccc(F)cc3)no2)c1 do in these assays?
HTT promoter inh: 30.5%[activator]; PMP22 txn prim: inconclusive

Results for Cc1cccc(-c2nc(CN3CCCC(C(=O)N4CCN(c5cc(Cl)ccc5C)CC4)C3)c(C)o2)c1 (stereo unspecified) ?
HTT promoter inh: inconclusive; PMP22 txn prim: inconclusive

How did CCc1ccc(S(=O)(=O)c2c(C(=O)c3ccccc3)cnc3ccc(CC)cc23)cc1 do in these assays?
HTT promoter inh: inconclusive; PMP22 txn prim: inconclusive

Results for Cc1ccc(CNC(=O)C(CC(C)C)NS(=O)(=O)c2ccc3c(c2)oc(=O)n3C)cc1 (stereo unspecified) ?
HTT promoter inh: -3.3%; PMP22 txn prim: 0.6%

Results for O=C(CS(=O)(=O)c1cccc2nsnc12)NCc1ccccc1 ?
HTT promoter inh: -9.6%; PMP22 txn prim: -4.1%

What do the screens show for `N#Cc1ccccc1NC(=O)C(=O)NCC(c1cccnc1)N1CCc2ccccc21` (stereo unspecified)?
HTT promoter inh: -25.0%; PMP22 txn prim: -4.8%

How did CCN(CC)C(=O)c1sc2c(c1C)c(=O)n(-c1ccc(Cl)c(Cl)c1)c(=O)n2CC(=O)Nc1cccc(OC)c1 do in these assays?
HTT promoter inh: 0.0%; PMP22 txn prim: 1.8%

Results for Cc1cc(C)cc(NC(=O)NCc2noc3ccccc23)c1 ?
HTT promoter inh: -9.6%; PMP22 txn prim: 14.6%

What do the screens show for `Cc1cccc(-n2ccnc2SCC(=O)Nc2cc(C(F)(F)F)ccc2Cl)c1`?
HTT promoter inh: inconclusive; PMP22 txn prim: inconclusive

What do the screens show for `Cc1ccc(Cl)cc1N1CCN(C(=O)c2cc(S(=O)(=O)N3CCCC3)cn2C)CC1`?
HTT promoter inh: -28.4%; PMP22 txn prim: -17.0%

What do the screens show for `COc1ccc(NC(=O)c2cccn2-c2nnc(N3CCCCC3)s2)c(OC)c1`?
HTT promoter inh: 5.3%; PMP22 txn prim: -17.9%

What do the screens show for `COc1cc(OC)c(NC(=O)c2nn(C)c3c2COc2ccccc2-3)cc1Cl`?
HTT promoter inh: -9.2%; PMP22 txn prim: -10.2%

Results for Cc1ccc(N2C(=O)CSC23C(=O)N(CC(=O)NCc2ccccc2)c2ccccc23)cc1 (stereo unspecified) ?
HTT promoter inh: -25.4%; PMP22 txn prim: -20.6%

Results for CC(C)(C)OC(=O)N1CCC(c2c(C(=O)N3CCOCC3)cnn2-c2ccccc2Cl)CC1 ?
HTT promoter inh: 2.8%; PMP22 txn prim: 0.4%

What do the screens show for `O=C(O)Cc1csc(-c2ccc(Cl)cc2)n1`?
HTT promoter inh: -7.3%

How did Cc1cc(C)cc(NC(=O)Cn2c(=O)n(C(C)C)c(=O)c3oc4ccccc4c32)c1 do in these assays?
HTT promoter inh: -17.8%; PMP22 txn prim: -20.9%

How did O=C(Cn1cc(S(=O)(=O)c2ccc(F)cc2)c(=O)c2cc3c(cc21)OCO3)Nc1ccccc1 do in these assays?
HTT promoter inh: inconclusive; PMP22 txn prim: -9.9%

How did Cc1ccc(Cc2nc3ccccc3nc2SCC(=O)N2CCCCC2)cc1 do in these assays?
HTT promoter inh: inconclusive; PMP22 txn prim: inconclusive

Results for COc1ccc(OC)c(NC(=O)N2CCN(S(=O)(=O)c3ccc4c(ccn4C)c3)CC2)c1 ?
HTT promoter inh: -23.5%; PMP22 txn prim: 24.2%

What do the screens show for `CCCOc1ccc(CNC(=O)CCCN2C(=O)CSc3c2c(C)nn3-c2ccccc2)cc1`?
HTT promoter inh: inconclusive; PMP22 txn prim: inconclusive

Results for CCN(C(=O)c1cnc(N2CCOCC2)c2ccccc12)c1cc(C)ccc1C ?
HTT promoter inh: -11.2%; PMP22 txn prim: -11.9%

Results for O=S(=O)(c1ccc(Cl)cc1)c1nnn2c1nc(NCc1cccs1)c1sccc12 ?
HTT promoter inh: -26.5%; PMP22 txn prim: inconclusive

How did COc1ccc(Cl)cc1NC(=O)C1CCCN(c2ncnc3onc(C)c23)C1 (stereo unspecified) do in these assays?
HTT promoter inh: inconclusive; PMP22 txn prim: inconclusive

Results for COc1ccc(NS(=O)(=O)c2ccc3[nH]c4c(c3c2)CCCCC4)cc1 ?
HTT promoter inh: inconclusive; PMP22 txn prim: inconclusive

How did CCc1ccc(-n2c(C)nc3cc(C(=O)NCCc4ccccc4)ccc32)cc1 do in these assays?
HTT promoter inh: -21.1%; PMP22 txn prim: inconclusive
